# Arbovirus anti: blocks arbovirus infection | arbovirus infection cell-based antiviral screen | 200,000 compounds, 0.37% hits | inhibition, % at 10 µM | AID 1251;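 active = inhibition from about 30%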;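 note: bluetongue infection of BSR cells; cell survival read as ATP light after 72 h; 0% = infected wells without compound and 100% = uninfected wells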
# RecA splice inh: blocks M. tuberculosis RecA intein splicing; P9WHJ3; inhibition, %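 (about 9 µM by stock and volumes)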; 290,000 compounds, 0.75% hits; cell-free RecA intein splicing, fluorescence; in the data active = inhibition above about 30%; inconclusive = no clear call, values can overlap the other calls;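 note: 0% = vehicle wells and 100% = reference inhibitor control wells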
# Target sequence (P9WHJ3 whole entry, looked up, canonical isoform): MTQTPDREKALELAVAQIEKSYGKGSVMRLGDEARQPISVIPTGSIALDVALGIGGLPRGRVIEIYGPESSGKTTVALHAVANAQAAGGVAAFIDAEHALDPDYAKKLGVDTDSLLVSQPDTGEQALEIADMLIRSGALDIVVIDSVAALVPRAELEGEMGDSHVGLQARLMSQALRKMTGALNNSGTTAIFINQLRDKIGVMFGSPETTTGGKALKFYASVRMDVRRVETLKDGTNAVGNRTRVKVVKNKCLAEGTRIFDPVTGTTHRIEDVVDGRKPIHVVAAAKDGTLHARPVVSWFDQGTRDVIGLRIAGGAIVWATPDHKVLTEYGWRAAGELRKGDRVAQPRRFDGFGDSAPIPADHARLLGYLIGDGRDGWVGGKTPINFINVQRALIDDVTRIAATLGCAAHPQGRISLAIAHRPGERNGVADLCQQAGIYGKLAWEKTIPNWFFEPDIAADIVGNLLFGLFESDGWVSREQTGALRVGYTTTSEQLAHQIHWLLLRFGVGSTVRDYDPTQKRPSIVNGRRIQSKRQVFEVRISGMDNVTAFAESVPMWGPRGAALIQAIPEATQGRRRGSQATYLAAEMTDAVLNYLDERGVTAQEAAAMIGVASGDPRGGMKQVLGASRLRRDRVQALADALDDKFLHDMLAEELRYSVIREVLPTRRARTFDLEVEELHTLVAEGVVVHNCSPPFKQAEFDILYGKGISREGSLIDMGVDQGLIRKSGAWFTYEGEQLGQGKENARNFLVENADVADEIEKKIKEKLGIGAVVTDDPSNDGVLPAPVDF
# Mtb bLac sens: beta-lactam sensitization of Mtb H37Rv; M. tuberculosis H37Rv growth with meropenem, percent inhibition; hits of this screen are not shown here; inhibition, % at 25 µM; 330,000 compounds, 0.27% hits;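 active = about 74% or more and at least 40 points above the plate without the antibiotic, then above 30% in a dose series; inconclusive = first-round hits that could not be retested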;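 note: growth measured after seven days incubation then overnight dye step; 0% = bacteria only wells and 100% = bacteria with antibiotic; twin plates without the antibiotic show which effects depend on it; some results filed as inactive read as strong as hits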
# YopH PTP inh: YopH (Yersinia) phosphatase inhibition | fluorescence Ex485/Em525 | inhibition, %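 (about 10 µM by stock and volumes)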 | 140,000 compounds, 0.16% hits | AID 898;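 active = inhibition of 50% or more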;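 note: controls were vehicle for no effect and minimum signal wells for full effect; inactives centre near -20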
# Mtb H37Rv: M. tuberculosis H37Rv growth inhibitors, H37Rv strain (AID 1626); one-dose inhibition, % at 10 µM; IC50 in µM for titrated hits; M. tuberculosis H37Rv growth inhibition; higher % means a stronger effect; 220,000 compounds, 0.95% hits;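 active = confirmed in a dose series; inconclusive = inhibition above 80% but not taken into the dose series; inactive = below 80% or under 30% at every dose of the series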;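 note: bacteria incubated seven days before Alamar blue readout; 0% = bacteria only wells and 100% = bacteria with antibiotic wells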
# Arbovirus anti repeat: recorded beside Arbovirus anti, whose call it bears; inhibition, %; measured here: 10K subset replicate screen; many hits read low in the repeat;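 first of two repeat runs on a subset; 0% = infected and 100% = uninfected wells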
# An asterisk follows results filed as active; ? = inconclusive; . = no result given. A portion of the library. The share of hits here may be higher or lower than overall.
SMILES,Arbovirus anti,RecA splice inh,Mtb bLac sens,YopH PTP inh,Mtb H37Rv,others
O=C(Cn1cc(C(F)(F)F)cc(Cl)c1=O)Nc1cccc(Cl)c1,6.5,0.4,3.2,-39.1,7.0%,
COc1ccc(S(=O)(=O)Nc2ncccc2C)c2ccccc12,.,7.2,-0.7,.,.,
Cc1nc(Sc2nnnn2C)c2c3c(sc2n1)CCC3,6.1,.,37.6,-18.3,1.6%,
CC(C)Sc1nnc([C@H](Cc2ccccc2)NC(=O)OC(C)(C)C)o1,.,2.3,-0.9,.,18.1%,
Cc1cc(=O)oc2cc(OC(C)C(=O)Nc3nccs3)ccc12 (centres undefined),-2.2,5.4,11.4,-4.5,4.7%,
Cc1ccc(NC(=O)C2CCN(S(=O)(=O)c3ccc4c(c3)CCCC(=O)N4)CC2)c(Br)c1,.,-2.1,-3.6,.,.,
CCO[C@@H]1OC(C(=O)N2CCOCC2)=C[C@H](C)[C@H]1CCCO,1.6,0.1,-7.5,.,0.8%,
CC(Sc1ccccc1)C(=O)Nc1cccc(N(C)S(C)(=O)=O)c1 (centres undefined),1.9,2.1,6.9,-21.4,14.4%,
O=C(CC1(O)C(=O)Nc2ccccc21)c1ccccc1O (centres undefined),6.5,0.4,-7.9,-17.3,-11.4%,
O=C(NC(C(=O)c1ccccc1)N1CCOCC1)c1ccccc1 (centres undefined),4.7,-4.3,-3.1,0.8,-3.2%,Arbovirus anti repeat=5.3
O=C(c1ccc(NS(=O)(=O)c2ccccc2)cc1)N1CCCCCC1,.,-0.1,-1.0,.,.,
CCOC(=O)c1cc(NC(=O)c2ccccc2)c(=O)oc1-c1ccccc1,-1.5,-0.7,11.3,-68.9,2.3%,
CCOc1ccc(NC(=O)N(C2CCCCCC2)C2CCN(C(C)=O)CC2)cc1,-4.1,-2.6,97.2,-22.4,>100µM*,
O=C(Nc1cc(Cl)ccc1O)c1snnc1-c1ccccc1,-25.4,1.7,2.5,-47.3,4.2%,
Cc1nn(CC(=O)N2CCc3ccccc3C2)c(C)c1[N+](=O)[O-],7.2,1.6,1.7,.,8.6%,
CCOC(=O)c1cnc(-n2nc(C)cc2C)nc1Nc1cccc(C(=O)O)c1,-5.8,.,21.3,-38.4,7.3%,
Cn1c(O)c(N=NC(=O)CNC(=O)c2ccccc2)c2ccccc21,.,3.3,-5.9,.,.,
COc1ccc(-c2cc(C(=O)N3CCN(Cc4ccc5c(c4)OCO5)CC3)on2)cc1OC,.,-3.9,-0.3,.,.,
CCCCC(=O)Nc1c(-c2cccc(OC)c2)c(=O)c2ccccc2n1C,.,-4.1,0.2,.,.,
O=[N+]([O-])c1ccc(O)c(-c2cc(C(F)(F)F)nc(-c3ccccc3)n2)c1,.,7.6,98.7,.,.,
O=C(c1ccccc1)N1CCC(c2nc3c(nnn3Cc3ccccc3Cl)c(=O)[nH]2)CC1,1.9,3.8,-5.8,-10.5,13.0%,
C[C@@H](C(=O)Nc1ccc2ccccc2c1)[C@@H]1C[C@@]1(C)[C@@H](NC(=O)c1ccccc1)c1ccccc1,-13.4,5.1,-3.6,-37.1,5.2%,
S=C(c1cn(CCOc2cccc3ccccc23)c2ccccc12)N1CCCC1,15.5,5.8,-10.1,4.7,5.9%,
COc1ccccc1-n1c(CNC(=O)c2ccco2)nnc1SCC(=O)Nc1cc(C)ccc1C,6.7,.,1.8,-38.5,.,
CCOC(=O)c1ccc(S(=O)(=O)Nc2cc(C(=O)O)ccc2Cl)cc1,0.8,1.0,14.1,.,8.3%,
N#C/C(=C/c1cn[nH]c1-c1ccc(Br)cc1)C(=O)O,-1.6,-0.2,-1.8,.,-1.7%,
CCc1ccc(CN2CCN(C(=O)Cc3ccccc3)CC2)cc1,-7.4,0.0,-6.8,.,0.3%,
O=[N+]([O-])c1ccc2nc(-c3ccccc3)[nH]c2c1,-5.6,-2.9,8.8,-26.8,3.0%,
COc1ccccc1CC(=O)Nc1ccc(NC(=O)c2cccs2)cc1,.,0.0,-9.6,.,.,
CCN(CC)CCCNCC(=O)Nc1cc(C)on1,1.5,3.2,-5.0,.,3.9%,
CS/C(N)=N/C(=S)Nc1cccc(Cl)c1,.,-0.3,99.5,.,1.7%,
O=C(CCc1ccccc1)NCc1ccccn1,0.9,0.3,-2.9,-7.7,-6.4%,
O=C1c2ccccc2C(=O)N1CCCP(=O)(O)CCc1ccccc1,2.5,-1.4,2.0,-21.4,-2.3%,
Cc1ccc(/C=C2\SC(=S)N(CC(=O)Nc3cccnc3)C2=O)cc1,-6.1,0.3,-0.6,.,-2.2%,
COC(CNC(=O)C1CCN(S(=O)(=O)c2cccc3nsnc23)CC1)OC,.,-1.6,3.3,.,.,
CCOC(=O)C1C(=O)OC(C)(C)C1C(CC)C(=O)c1c(C)cc(C)cc1C (centres undefined),.,0.8,-4.4,.,2.9%,
COC(=O)CSc1nc2cc(OC)ccc2n1C,.,1.4,6.8,.,-5.9%,
COC(=O)c1c(NC(=O)c2ccc([N+](=O)[O-])o2)sc2c1CCN(C(C)C)C2,.,-14.6,99.9,.,.,
COc1ccc(OCCNC(=O)c2cccc(Oc3ccc(C(F)(F)F)cc3[N+](=O)[O-])c2)cc1,-4.0,-1.2,-0.8,-9.6,7.9%,
Cc1ccc(-n2nc(C)c3c2OC(N)=C(C#N)C3c2ccccc2F)cc1 (centres undefined),7.2,43.3*,4.1,-3.4,4.9%,
O=C(NCCSc1ccc(Cl)cc1)c1ccc(CN2CCOCC2)cc1,-5.5,-6.2,1.5,.,4.1%,
COC(=O)C1=C(O)/C(=C\c2cc(C)n(-c3ccccc3F)c2C)N=C1C,4.0,0.3,0.5,.,0.4%,
CCOC(=O)c1oc2ccc(S(=O)(=O)Nc3ccc4c(c3)n(C)c(=O)n4C)cc2c1C,-19.5,.,9.6,-29.8,-2.0%,
Nc1c(N(C(=O)Nc2ccc(Cl)c(Cl)c2)C2CCCC2)c(=O)[nH]c(=O)n1Cc1ccccc1,3.5,-0.5,-3.0,-28.7,.,
CC(C)CCC(CCN1CCCC1)c1ccc2c(c1)OCO2 (centres undefined),.,-0.1,-3.7,.,-3.4%,
CCCCOc1ccc(C2CCC(C(C)=O)C(C)C2)cc1 (centres undefined),.,-6.8,4.9,.,0.1%,
CCN(CC)S(=O)(=O)c1ccc(C)c(NC(=O)CN(C)C)c1,7.7,-2.0,-7.8,-18.9,-1.8%,
CCCc1cc(=O)oc2c(C)c(O[C@@H]3O[C@H](CO)[C@@H](O)[C@H](O)[C@H]3O)ccc12,.,-0.4,?,.,.,
CSCCC1NC(=O)N(C(C)C(=O)Nc2cc(Cl)cc(Cl)c2)C1=O (centres undefined),-10.6,-1.7,-10.0,.,46.6%,
COc1ccc(OC)c(NC(=O)CSc2nc(=O)n(CCN3CCOCC3)c3c2CCC3)c1,.,2.1,3.3,.,.,
CCOc1ccc(S(=O)(=O)N2CCc3ccccc3C2)cc1,9.6,2.8,-5.8,-35.7,2.5%,
COC(=O)C1=CNC=C(C(=O)OC)C1c1cccc(OC)c1,9.8,-45.2,-9.8,-26.9,8.3%,
CCc1cccc(C)c1NC(=S)NCCc1c(C)[nH]c2ccc(C)cc12,-34.6,9.1,-1.1,-30.6,13.5%,
CCCn1c(CC)nc([N+](=O)[O-])c1S(=O)(=O)c1ccccc1,-31.8,46.2*,96.8,-36.8,11.1%,
CC(=O)Nc1ccc(S(=O)(=O)NCCNC(=O)c2ccccc2F)cc1,7.1,-0.2,-1.0,12.7,1.7%,
Cc1ccc(Cl)cc1N1CCN(S(=O)(=O)c2cnc[nH]2)CC1,9.1,2.2,2.4,-20.7,1.5%,
CCN(C(=O)c1cnc2scc(C)n2c1=O)c1ccccc1C,6.3,-1.5,1.4,-23.1,-1.2%,
CCOC(=O)c1[nH]c2ccc(F)cc2c1NC(=O)CN1CCN(C/C=C/c2ccccc2)CC1,-33.1,2.8,100.1,-39.2,.,
N#CCCCn1c(-c2ccccc2)noc1=O,3.3,-0.3,-6.0,-44.5,-2.9%,
CC1CCN(C(c2cccs2)c2nnnn2Cc2ccccc2)CC1 (centres undefined),-1.0,2.4,5.0,1.9,1.8%,
# New compounds follow
SMILES,Arbovirus anti,RecA splice inh,Mtb bLac sens,YopH PTP inh,Mtb H37Rv,others
CC(=O)Nc1ccc2nc3ccccc3nc2c1,.,-239.8,4.2,.,-12.1%,
COc1ccccc1NC(=S)NCCC(c1ccccc1)c1ccccc1,13.7,21.8,-1.4,-12.1,4.0%,
Cc1ccc(C(=O)NCCNC(=O)Cc2ccccc2)cn1,.,-3.3,-12.8,.,.,
CCOC(=O)C1CCCN(c2c(NCCc3ccc(Cl)cc3)c(=O)c2=O)C1 (centres undefined),.,2.6,-7.6,.,-5.9%,
O=C(CC(=O)c1c(F)cccc1Cl)c1ccccc1O,.,2.0,85.7,.,.,
COc1ccc(NC(=O)CSc2nc(O)cc(=O)[nH]2)c(OC)c1,.,-4.6,3.6,.,-2.9%,
CCc1cc(=O)oc2cc(OCC(=O)N3CCC(C(N)=O)CC3)ccc12,.,0.1,1.9,.,.,
Oc1ccc(Br)cc1C=Nc1ccc(Cl)cc1,-5.7,0.0,5.7,.,3.2%,
COc1ccc([N+](=O)[O-])cc1N(CC(O)Cn1nnc2ccccc21)S(=O)(=O)c1ccc(C)cc1 (centres undefined),7.5,3.0,0.3,-30.4,1.5%,
CCCCNC(=O)Nc1nc2ccccc2s1,4.4,-1.5,10.8,.,-0.9%,
Cc1cc(C)n(S(=O)(=O)c2ccc(C(C)(C)C)cc2)n1,14.3,1.4,?,-14.8,1.3%,
COc1ccccc1-c1ccc(NC2CCCCC2)nn1,-6.9,1.0,78.6,-20.4,-6.6%,
O=C(c1cccc(N2CCCC2=O)c1)N1CCN(c2ccccc2)CC1,10.4,.,0.1,-1.2,-4.6%,
O=S(=O)(c1ccc(N=C2NN=C(c3cc(F)ccc3F)CS2)cc1)N1CCOCC1,-13.7,.,.,.,-18.4%,
Cc1cccc(NC(=O)CN2C(=O)NC(C)(c3ccc4c(c3)OCO4)C2=O)c1 (centres undefined),-5.4,-1.3,-7.7,-10.2,2.9%,
COC(=O)C1=C(C)OC(N)=C(C#N)C1c1cc2cc(C)ccc2nc1Cl (centres undefined),-3.4,-8.1,0.7,.,-5.0%,
O=C(O)c1ccc(N2CC3CC(C2)c2cccc(=O)n2C3)c(NS(=O)(=O)c2cccc(C(F)(F)F)c2)c1 (centres undefined),2.3,-2.6,1.4,.,1.1%,

# By substructure: those above containing four or more nitrogen atoms (16)
SMILES,Arbovirus anti,RecA splice inh,Mtb bLac sens,YopH PTP inh,Mtb H37Rv,others
Cc1nc(Sc2nnnn2C)c2c3c(sc2n1)CCC3,6.1,.,37.6,-18.3,1.6%,
Cc1nn(CC(=O)N2CCc3ccccc3C2)c(C)c1[N+](=O)[O-],7.2,1.6,1.7,.,8.6%,
CCOC(=O)c1cnc(-n2nc(C)cc2C)nc1Nc1cccc(C(=O)O)c1,-5.8,.,21.3,-38.4,7.3%,
Cn1c(O)c(N=NC(=O)CNC(=O)c2ccccc2)c2ccccc21,.,3.3,-5.9,.,.,
O=C(c1ccccc1)N1CCC(c2nc3c(nnn3Cc3ccccc3Cl)c(=O)[nH]2)CC1,1.9,3.8,-5.8,-10.5,13.0%,
COc1ccccc1-n1c(CNC(=O)c2ccco2)nnc1SCC(=O)Nc1cc(C)ccc1C,6.7,.,1.8,-38.5,.,
CCN(CC)CCCNCC(=O)Nc1cc(C)on1,1.5,3.2,-5.0,.,3.9%,
COC(CNC(=O)C1CCN(S(=O)(=O)c2cccc3nsnc23)CC1)OC,.,-1.6,3.3,.,.,
Cc1ccc(-n2nc(C)c3c2OC(N)=C(C#N)C3c2ccccc2F)cc1 (centres undefined),7.2,43.3*,4.1,-3.4,4.9%,
Nc1c(N(C(=O)Nc2ccc(Cl)c(Cl)c2)C2CCCC2)c(=O)[nH]c(=O)n1Cc1ccccc1,3.5,-0.5,-3.0,-28.7,.,
COc1ccc(OC)c(NC(=O)CSc2nc(=O)n(CCN3CCOCC3)c3c2CCC3)c1,.,2.1,3.3,.,.,
Cc1ccc(Cl)cc1N1CCN(S(=O)(=O)c2cnc[nH]2)CC1,9.1,2.2,2.4,-20.7,1.5%,
CCOC(=O)c1[nH]c2ccc(F)cc2c1NC(=O)CN1CCN(C/C=C/c2ccccc2)CC1,-33.1,2.8,100.1,-39.2,.,
CC1CCN(C(c2cccs2)c2nnnn2Cc2ccccc2)CC1 (centres undefined),-1.0,2.4,5.0,1.9,1.8%,
COc1ccc([N+](=O)[O-])cc1N(CC(O)Cn1nnc2ccccc21)S(=O)(=O)c1ccc(C)cc1 (centres undefined),7.5,3.0,0.3,-30.4,1.5%,
O=S(=O)(c1ccc(N=C2NN=C(c3cc(F)ccc3F)CS2)cc1)N1CCOCC1,-13.7,.,.,.,-18.4%,
